# Assay outcomes from PubChem.
# HIV Env fusion = inhibitors of HIV-1 Env-driven cell-cell fusion, primary screen, HeLa-JRFL effector, CEM21 target cells, luciferase; inhibition, % at 12.3 µM; actives 1.1% (n = 360,000);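 active means mean replicate inhibition score of at least 50 and every replicate individually at or above 50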;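 further: 0% = plate neutral controls and 100% = maraviroc near 300 nM; one replicate is shown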
# MT1-MMP act inh = blockers of MT1-MMP proenzyme processing, primary screen, HT1080 RFP-PRO-GFP cells, GFP/RFP fluorescence. actives 0.061% (n = 360,000). GFP/RFP ratio fluorescence, overnight; percent of plate control window, DMSO zero. GFP/RFP ratio change, % at 20 µM. Matrix metalloproteinase-14 (Homo sapiens), P50281;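 active means GFP/RFP ratio change of at least 30% with cell ATP level not reduced by more than half and red fluorescence within 50% of control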; further: strong numbers were not always called active
#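 Test system: HT1080 cells expressing an RFP-PRO-GFP fluorescent reporter construct / Compound dosing: single-point 20 µM compound, 1% DMSO / Schedule: cells overnight before dosing, compound overnight, 37 °C, 5% CO2 / Evaluation: GFP/RFP fluorescence ratio / Control set: DMSO and RFP-L50D-GFP cell wells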
# eIF4H inh = human eIF4H binding inhibitors, primary screen, translation initiation inhibitor project, biochemical, uHTS, fluorescence polarization; AID 2012, 2009; Eukaryotic translation initiation factor 4H (Homo sapiens), Q15056; eIF4H fluorescence polarization binding assay; inhibition, % at 35 µM; actives 0.94% (n = 290,000);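 active means 50% or more with normal probe brightness, or confirmed in later tests; about a fifth of its hits are not listed in these tables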;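 further: calls also rest on retests at 20 µM and on dose response follow-up; 0% = protein and probe with vehicle and 100% = probe without protein; strong numbers were not always called active; many hits fall short of the cut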
# CSC inhib = cancer stem cell viability inhibitors, primary screen, luminescence; cancer stem cell-like cells viability; inhibition, % at 7.5 µM; actives 1.1% (n = 300,000);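 active means mean at 75% or more and at least half the replicates too; tested in HMLE shEcad cells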;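 further: 0% = median of negative and 100% = median of positive control wells; the first replicate is given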
# PABP FP inh = PABP poly(A) RNA binding inhibitors, primary screen, biochemical, fluorescence polarization, uHTS. Polyadenylate-binding protein 1 (Homo sapiens), P11940. inhibition, % at 35 µM. actives 1% (n = 290,000). AID 2014, 2009;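 active means 50% or more with normal probe brightness, or confirmed in later tests; about a fifth of its hits are not listed in these tables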;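 further: calls also rest on retests at 20 µM and on dose response follow-up; controls were probe without protein and protein plus probe with vehicle; some compounds called inactive have numbers as strong as hits; many hits fall short of the cut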
# Target sequence (P11940 whole entry, looked up): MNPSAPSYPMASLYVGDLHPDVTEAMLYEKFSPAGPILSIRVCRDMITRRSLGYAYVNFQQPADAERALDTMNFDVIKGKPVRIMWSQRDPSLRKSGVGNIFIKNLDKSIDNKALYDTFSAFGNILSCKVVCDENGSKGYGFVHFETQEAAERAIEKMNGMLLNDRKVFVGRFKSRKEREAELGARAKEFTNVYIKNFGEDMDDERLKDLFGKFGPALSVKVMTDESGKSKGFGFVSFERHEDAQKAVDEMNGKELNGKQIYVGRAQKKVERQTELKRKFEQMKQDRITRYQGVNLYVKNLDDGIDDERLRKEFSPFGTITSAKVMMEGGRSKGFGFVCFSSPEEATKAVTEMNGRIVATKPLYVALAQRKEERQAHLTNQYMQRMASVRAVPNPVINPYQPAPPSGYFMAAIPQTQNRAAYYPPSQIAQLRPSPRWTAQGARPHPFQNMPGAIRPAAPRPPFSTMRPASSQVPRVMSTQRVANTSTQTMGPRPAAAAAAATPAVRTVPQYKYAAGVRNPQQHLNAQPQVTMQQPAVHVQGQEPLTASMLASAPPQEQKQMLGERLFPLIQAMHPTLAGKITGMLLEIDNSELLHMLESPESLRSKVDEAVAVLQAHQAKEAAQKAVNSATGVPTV
# Yeast UUG start = modulators of yeast start codon fidelity, primary screen, whole organism, S. cerevisiae, single point, plate reader; S. cerevisiae UUG-firefly luciferase reporter, luminescence/redox ratio; activity score, % at 18.7 µM; actives 0.13% (n = 350,000); AID 602363, 2012;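 active means replicate mean at a twofold rise or more, about +100% in these data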;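 further: firefly luciferase made from a UUG start codon reports start codon fidelity; reporter light over untreated wells divided by growth signal over untreated wells; some hits fall short of that in this replicate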
# Rce1 inhib = yeast Rce1p protease inhibitors, primary screen, biochemical, fluorescence, cell-free homogeneous; CAAX prenyl protease 2 (Saccharomyces cerevisiae (strain ATCC 204508 / S288c)), Q03530; calls only; actives 0.27% (n = 290,000); yeast membranes, quenched prenylated peptide cleavage fluorescence;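 active means fall in fluorescence gain of 50% or more versus controls, with final raw signal at or below 3038400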;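 further: plate controls were neutral control wells for no effect and wells lacking membranes for full effect; tested at 10 µM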
# eIF4H inh retest = further read-out of eIF4H inh, marked with its call; inhibition, %; compound at 20 µM; confirmation average;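 mean of two retest wells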
# PABP FP inh retest = also measured in PABP FP inh; calls as there; inhibition, %; compound at 20 µM; confirmation repeats;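 mean of two retest wells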
# MT1-MMP act inh RFP = also measured in MT1-MMP act inh; calls as there; RFP signal change, %; measured here: RFP expression control read;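 0 = vehicle wells; hits needed this value within 50% of zero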
# The depositor's hits bear a star; i = inactive; x = not tested or not shown.
SMILES,HIV Env fusion,MT1-MMP act inh,MT1-MMP act inh RFP,eIF4H inh,CSC inhib,PABP FP inh,Yeast UUG start,Rce1 inhib,others
COCCn1c(=O)[nH]c2cc(C(=O)N3CCN(c4cccc(Cl)c4)CC3)ccc2c1=O,20,-3,-11,-8,7,5,0,x,
O=C(COC(=O)CNC(=O)c1ccccc1F)Nc1nnc(-c2ccccc2)o1,-9,2,4,x,-4,x,-28,i,
COc1ccccc1N1CCN(C2CCCN(C(=O)CCc3c(C)noc3C)C2)CC1 (stereo not given),-2,-1,0,-4,-10,-3,-2,i,
COc1ccc(S(=O)(=O)n2[nH]c(=O)c(CCO)c2C)cc1,-4,-3,0,-3,6,3,-15,i,
CCOc1cc(/C=N/NC(=O)c2cc(-c3ccccc3)nc3ccccc23)ccc1O,6,5,0,-3,-1,11,-13,i,
CCOCCCn1c(=S)[nH]c2cc(C(=O)N3CCC(C(N)=O)(N4CCCCC4)CC3)ccc2c1=O,6,2,2,5,12,4,-21,i,
CC(=O)Oc1ccc2c(C)cc(=O)[nH]c2c1,x,-6,1,-5,-13,7,-9,i,
CN1CCCC2(CCCN(Cc3nc(Cc4cccc(C(F)(F)F)c4)no3)C2)C1 (stereo not given),4,-2,-1,6,32,-11,-10,i,
CC(=O)NCc1cn2c(C)csc2n1,-49,-1,3,-7,-6,-6,-13,i,
NC(Cc1ccc(Cl)cc1)c1csc(Nc2ccc(C(=O)c3ccccc3)cc2)n1 (stereo not given),-4,-9,-7,x,x,x,3,x,
C/C(=N\NC(=O)c1cc(-c2cccc(OC(C)C)c2)nc2ccccc12)c1cccnc1,-49,3,2,-1,-3,4,-6,i,
COc1ccc2nc(NC(=O)CCNC(=O)c3ccco3)sc2c1,-43,-3,5,x,x,x,-20,x,
CCC1CCc2c(n(C)c3ccccc3c2=O)O1 (stereo not given),x,7,7,-5,-15,-6,-17,i,
CN(CC(=O)Nc1ccccc1Br)C(=O)CCC1CCCC1,8,2,2,-14,-8,8,2,i,
COc1cccc(-c2cc(C(=O)N3CCOCC3)no2)c1,-1,-1,0,2,45,0,-19,i,
COc1ccc(CNCC(=O)Nc2cc(C)nn2-c2nc(C)cc(C)n2)cc1OC,2,x,x,-3,10,4,x,i,
COc1ccc(OCC(N)=O)cc1,1,-3,-1,-11,-7,-5,-17,i,
COc1ccccc1N1CCN(S(=O)(=O)c2ccc3c(c2)NC(=O)C(C)S3)CC1 (stereo not given),0,-1,-18,0,1,-3,-5,i,
COc1cccc(C(=O)NCC(c2cccs2)N2CCc3ccccc32)c1 (stereo not given),x,4,-3,x,8,x,-11,i,
COc1cc2c(cc1OC)C(C)N(S(=O)(=O)c1cnc(Cl)c(Cl)c1)CC2 (stereo not given),x,7,-12,2,31,10,-6,i,
O=C(NC1CC1)C1=C[C@@H](c2ccc3c(c2)OCO3)C[C@@H](OCc2ccc(CO)cc2)O1,-24,-2,-2,2,-10,2,-15,i,
Cc1ccc(Sc2ccc(NC(=O)CCl)cc2)c(C)c1,-57,x,x,2,40,10,x,i,
O=C(Nc1nc(-c2cc(Cl)sc2Cl)cs1)c1ccccc1,-17,-10,-15,1,-6,-3,-15,i,
CCc1ccc(Nc2n[n+](-c3ccccc3)c(-c3c(Cl)cccc3Cl)s2)cc1,70*,10,-30,-4,109*,-3,-16,i,
COc1ccccc1-c1nnc(-c2ccc(N3CCOCC3)cc2)o1,-31,1,-6,-10,-3,-19,1,i,

# Fetched by structure from the list above:
SMILES,HIV Env fusion,MT1-MMP act inh,MT1-MMP act inh RFP,eIF4H inh,CSC inhib,PABP FP inh,Yeast UUG start,Rce1 inhib,others
NC(Cc1ccc(Cl)cc1)c1csc(Nc2ccc(C(=O)c3ccccc3)cc2)n1 (stereo not given),-4,-9,-7,x,x,x,3,x,
COc1cccc(C(=O)NCC(c2cccs2)N2CCc3ccccc32)c1 (stereo not given),x,4,-3,x,8,x,-11,i,
CC(=O)Oc1ccc2c(C)cc(=O)[nH]c2c1,x,-6,1,-5,-13,7,-9,i,
CCC1CCc2c(n(C)c3ccccc3c2=O)O1 (stereo not given),x,7,7,-5,-15,-6,-17,i,
COc1ccc(CNCC(=O)Nc2cc(C)nn2-c2nc(C)cc(C)n2)cc1OC,2,x,x,-3,10,4,x,i,
COc1ccc2nc(NC(=O)CCNC(=O)c3ccco3)sc2c1,-43,-3,5,x,x,x,-20,x,

# Additional entries follow.
SMILES,HIV Env fusion,MT1-MMP act inh,MT1-MMP act inh RFP,eIF4H inh,CSC inhib,PABP FP inh,Yeast UUG start,Rce1 inhib,others
CC(=O)N(C)C1(c2nnnn2CCOC(=O)Nc2cccc3ccccc23)CCCC1,x,7,4,-3,-6,5,2,x,
Cc1cccc(NC(=S)NNC(=O)c2ccco2)c1,-78,-3,6,8,x,3,-18,i,
CCOC(=O)c1cc(C)sc1NC(=O)CSc1nnnn1C,x,2,-5,-13,-16,6,-3,i,
CC1(C)C2([N+](=O)[O-])CN(CCO)CC1([N+](=O)[O-])CN(CCO)C2,x,-3,-3,-5,2,10,5,i,
Cc1cc(C(=O)NCc2csc(-c3ccccc3)n2)no1,-23,0,1,-1,4,7,-2,i,
NC(=S)Nn1c(CCC(=O)O)ccc1-c1ccccc1,10,0,3,5,-7,-4,x,i,
NNC(=S)Nc1ccccc1Cl,-9,2,-4,-18,22,4,0,i,
CC(C)(C)NC(=O)NC(=O)CN1CCN(C(c2ccccc2)c2ccccc2)CC1,20,-9,-7,-3,1,21,x,i,
Fc1ccc(CSc2ccc3nnc(-c4cccs4)n3n2)cc1,14,1,2,-3,2,-4,-18,i,
Cc1ccc(C(=O)NCC(=O)OCC(=O)Nc2ccc3[nH]c(=O)[nH]c3c2)cc1,6,1,2,x,-4,x,x,x,
CCOc1cc(/C=N/NC(=O)CCn2nnc3ccccc32)ccc1O,18,1,0,-11,14,-5,x,i,
CCOc1ccccc1-c1nc(-c2cc3ccc(C)cc3[nH]c2=O)no1,-77,2,-3,6,-10,-5,-14,x,
O=C(c1ccc(Cl)cc1)c1cnc(Nc2ccccc2)s1,-49,6,8,-10,10,-1,-12,i,
O=C(CSc1nc(NS(=O)(=O)c2ccccc2)cc(=O)[nH]1)Nc1ccc(Cl)cc1,-24,-8,-4,2,x,-6,x,x,
Cc1ccccc1S(=O)(=O)N1C[C@H]2CON(C)[C@H]2C[C@H]1c1cccc(N2CCOCC2)c1,-12,2,2,x,x,x,9,x,
Cc1ccc(Cl)c(NC(=O)COC(=O)c2ccccc2C(=O)c2ccc(Cl)c([N+](=O)[O-])c2)c1Cl,-43,-27,-38,1,-21,2,-13,i,
CC(C)CC1(C)NC(=O)N(CC(=O)Nc2ccccc2Br)C1=O (stereo not given),8,2,2,x,-18,x,-15,x,
O=C(NC(=S)Nc1cccc(Cl)c1N1CCCCC1)c1cccs1,x,3,-4,7,99*,7,x,i,
COC(=O)c1cc(C(=O)OCC(=O)N2CCCCC2)cc([N+](=O)[O-])c1,15,2,2,x,-19,x,-15,x,
CCOc1ccc(N2CC(C(=O)Nc3nnc(Cc4ccc(OC)c(OC)c4)s3)CC2=O)cc1 (stereo not given),3,0,-3,-9,-10,-6,-11,i,
COc1cccc(NC(=O)CN(C)C(=O)CNC(=O)c2sc3ccccc3c2Cl)c1,-11,3,2,x,x,x,-6,x,
COc1ccc(S(=O)(=O)N2CCOC2CNC(=O)C(=O)NCc2ccco2)cc1OC (stereo not given),2,-1,2,10,1,12,-9,i,
COc1ccccc1CNC(=O)Cn1cccc1,-68,1,2,0,-5,5,-11,i,
Cn1c(Cc2ccccc2)nnc1SCC(=O)Nc1ccccc1,-1,-2,0,-8,-6,-6,x,i,
CN(CC(=O)NCc1ccccc1Cl)S(=O)(=O)c1ccc2c(c1)n(C)c(=O)c(=O)n2C,10,1,2,-1,-15,10,-13,i,

# The closing two entries of the part before lead into the next:
SMILES,HIV Env fusion,MT1-MMP act inh,MT1-MMP act inh RFP,eIF4H inh,CSC inhib,PABP FP inh,Yeast UUG start,Rce1 inhib,others
Cn1c(Cc2ccccc2)nnc1SCC(=O)Nc1ccccc1,-1,-2,0,-8,-6,-6,x,i,
CN(CC(=O)NCc1ccccc1Cl)S(=O)(=O)c1ccc2c(c1)n(C)c(=O)c(=O)n2C,10,1,2,-1,-15,10,-13,i,
COc1ccc(S(=O)(=O)N[C@@H](Cc2ccccc2)C(=O)N2CC[C@@]3(O)CCCC[C@H]3C2)cc1,x,2,1,-3,-3,-9,-2,i,
COc1ccc(NS(=O)(=O)c2cc(N)ccc2N2CCOCC2)cc1,-8,2,-2,0,-6,-4,-20,i,
Cc1ccc(-n2ncc3c2CC(C)(C)CC3NC(=O)CCc2cnn(C)c2)cc1 (stereo not given),0,-2,-8,-6,-17,55,-10,i,eIF4H inh retest=1;PABP FP inh retest=27
CC1(C(=O)NS(=O)(=O)c2ccc3c(c2)CCO3)CCN1C(=O)CCc1ccc(Cl)cc1Cl (stereo not given),-154,4,5,x,x,x,-13,x,
CCCCCCC(O)(CCN1CCCCC1)c1ccccc1 (stereo not given),14,0,0,-9,9,-7,-5,i,
CCOc1ccc(CN2CCN(Cc3[nH]c4ccccc4c3C)CC2CCO)cc1 (stereo not given),-21,0,-1,-16,11,-6,x,i,
Cc1nc(=O)c(-c2ccccc2)c(C)n1-c1ccccc1C(=O)O,-63,-4,0,0,-10,6,-29,i,
S=c1nc(NCc2ccc3c(c2)OCO3)c2ccccc2[nH]1,-1,3,-7,-1,-8,4,-14,i,
COc1ccccc1N1C(=O)CC(N2CCc3ccccc32)C1=O (stereo not given),-27,-4,8,6,6,10,-2,i,
C=CCNC(=O)c1ccc2c3n(nc2c1)-c1ccc(C)cc1CO3,-242,8,-4,-1,2,1,-13,i,
O=C(O)CCn1c(=O)sc2ccccc21,-61,-1,3,2,3,0,-17,i,
N#CCc1c(C#N)c(N)nc(N2CCN(C=O)CC2)c1C#N,-6,5,6,-2,-5,1,x,x,
Cc1ccccc1C(=O)NC(=S)Nc1ccc(Oc2ccc(Cl)cc2)cc1,x,-1,-13,1,65,-4,-15,i,
CC1=C(C(=O)OC2CCCC2)C(c2coc3ccccc3c2=O)C2=C(CCCC2=O)N1 (stereo not given),9,-9,-5,1,-1,-8,14,i,
Cc1cc(C)c(S(=O)(=O)Nc2ccc(O)cc2)cc1C,x,0,-4,-4,-12,-3,-9,i,
O=S(=O)(c1cc(Cl)ccc1Cl)N1CCc2ccccc21,9,5,-2,14,3,0,-5,i,
C[C@@H](NCCCn1cnc2c(OCc3ccccc3)ncnc21)c1cccc2ccccc12,6,0,-2,x,x,x,-16,x,
CC(C)Nc1nc2ccccc2c(=O)[nH]1,-9,3,5,-11,-12,2,-10,i,
O=C(Nc1ccc(F)cc1)c1cccnn1,4,-2,0,-4,-7,-4,-12,i,
O=C(CSc1nc2ccccc2c(=O)n1NC(=O)Cc1ccccc1)NCc1ccccc1,-60,9,2,-4,x,0,-8,i,
Nc1ccccc1SCC(=O)N1CCc2ccccc21,x,6,8,-1,-8,4,-12,i,
Cc1cccc(CS(=O)(=O)Cc2ccc(C(=O)NCCN3CCCCC3C)o2)c1 (stereo not given),x,2,2,10,-7,-4,-15,i,
CCOC(=O)[C@H]1CCC[C@@H](NS(=O)(=O)c2ccc(NC(C)=O)cc2)C1,x,-6,-3,2,-4,-2,0,i,
